# miR-21 reporter: miR-21 reporter, rising signal; 340,000 tested, under 10 active; AID 2288; Potency, µM (doses to about 38.3 µM), inactives show at the top dose reporter change, positive = more light; HeLa miR-21 FLuc reporter, luciferase, 48 h; active = well fitted rising curve with a large enough effect; inconclusive = small, poorly fitted or top-dose-only effect; inactive = no such curve, though single readings can be large or run the other way;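 note: % of control where 0% means no effect; miR-21 action dims this reporter so a rising signal means less miR-21 action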
#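 HeLa miR-21-FLuc reporter line, endogenous miR-21; 2000 cells/well in DMEM/10% FBS; compound titration up to ~40uM final, 48 h, 37 degree Celsius; luciferase detection reagent, 15 min lysis, CCD luminescence.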
# Numbers without * were called inactive; ? = inconclusive.
SMILES,miR-21 reporter
COc1cccc(NS(=O)(=O)c2ccc3[nH]cc(C(=O)N4CCCCCC4)c(=O)c3c2)c1,-15%
CCOCCCn1c(SCC(=O)NCc2ccccc2)nc2c(sc3ccccc32)c1=O,-2%
COc1ccc(S(=O)(=O)c2c(C(=O)c3ccc(C)c(C)c3)cnc3ccc(F)cc23)cc1,?
O=C(CN1CCN(Cc2ccc(F)cc2Cl)S1(=O)=O)Nc1ccc(F)cc1,-4%
C=Cc1ccc(Cn2c(C(=O)OC)cc3sc(C)cc32)cc1,-27%
COc1cccc(-c2ccc3c(N)c(C(=O)Nc4ccccc4C)sc3n2)c1,-20%
CCCCn1cc(S(=O)(=O)c2ccc(OC)cc2)c(=O)c2cc(F)c(F)cc21,-1%
CCOc1ccc(C(=O)Nc2ccc3nc4c(c(Nc5ccccc5OC)c3c2)CCCC4)cc1,-1%
Cc1scc(CN2CCN(c3ccc(F)cc3)CC2)c1C,3%
Cc1ccc(-c2nc3ccc(Br)cn3c2Nc2ccc3c(c2)OCO3)o1,-18%
CCn1cc(C(=O)N2CCN(c3ccccc3)CC2)c(=O)c2cc(S(=O)(=O)N3CCC(C)CC3)ccc21,-2%
COc1ccc(-n2c(C)c(C(C)=O)c3cc(OC(=O)COc4ccccc4)ccc32)cc1,24%
CN1CCN(C(=O)Cn2ncc3c4ccccc4n(Cc4ccc(F)cc4)c3c2=O)CC1,9%
Cc1ccc(-n2ncc(C(=O)N3CCN(C4CCCCC4)CC3)c2C2CCN(C(=O)OC(C)(C)C)CC2)cc1C,10%
O=C(Cn1c(=O)c2ccccc2n(CC(=O)Nc2ccc(F)cc2)c1=O)NCCc1ccccc1,-25%
CSc1ccc(CCNC(=O)c2ccc(-n3c(C)cc4c3CCCC4)cc2)cc1,28%
CC(C)Oc1ccc(C(=O)N(Cc2ccc(N(C)C)cc2)C2CCS(=O)(=O)C2)cc1 (centres undefined),-11%
CC(C)(C)OC(=O)N1CCC(c2c(C(=O)N3CCN(c4ncccn4)CC3)cnn2-c2ccc(F)cc2F)CC1,1%
CCn1ccc2cc(S(=O)(=O)N3CCC(C(=O)NCc4ccc(OC(C)C)cc4)CC3)ccc21,7%
Cc1ccccc1C(=O)Nc1ccc2oc(-c3ccc(Cl)c(Cl)c3)nc2c1,-16%
COc1cccc(C2CC(=O)Nc3c2c(=O)[nH]c2nc4ccccc4n32)c1 (centres undefined),-6%
COc1ccccc1CNC(=O)Cn1nc(C)c2nn(-c3ccc(Cl)cc3)c(C)c2c1=O,-4%
Cc1nn(CC(=O)NCCc2ccccc2)c(=O)c2nn(-c3ccccc3)c(C)c12,-10%
O=C(Nc1noc2ccccc12)c1cccc(F)c1,-27%
O=C(Cn1c(=O)c2cccn2c2ccc(F)cc21)N1CCN(c2ccccc2)CC1,27%

# Given field by field: part of the list above.
SMILES: CC(C)Oc1ccc(C(=O)N(Cc2ccc(N(C)C)cc2)C2CCS(=O)(=O)C2)cc1 (centres undefined)
  miR-21 reporter: -11%

SMILES: CCOc1ccc(C(=O)Nc2ccc3nc4c(c(Nc5ccccc5OC)c3c2)CCCC4)cc1
  miR-21 reporter: -1%

# 4 compounds from above, arranged by length of the SMILES, low to high.
SMILES,miR-21 reporter
Cc1scc(CN2CCN(c3ccc(F)cc3)CC2)c1C,3%
Cc1ccccc1C(=O)Nc1ccc2oc(-c3ccc(Cl)c(Cl)c3)nc2c1,-16%
COc1ccccc1CNC(=O)Cn1nc(C)c2nn(-c3ccc(Cl)cc3)c(C)c2c1=O,-4%
COc1ccc(S(=O)(=O)c2c(C(=O)c3ccc(C)c(C)c3)cnc3ccc(F)cc23)cc1,?

# Continuation.
SMILES,miR-21 reporter
COCCCn1c(=N)c(S(=O)(=O)c2ccccc2)cc2c(=O)n3cccc(C)c3nc21,-1%
COc1ccc(S(=O)(=O)N2CCC(C(=O)Nc3cc(C(F)(F)F)ccc3Cl)CC2)cc1,27%
Cc1ccc2oc(=O)c(S(=O)(=O)c3ccc(C(C)(C)C)cc3)cc2c1,-1%
COc1cc(Cl)c(C)cc1NC(=O)CSc1cc(-c2ccccc2)nc(C)n1,-5%
Cc1ccc2nc(/C(C#N)=C/c3cccc(Br)c3)[nH]c2c1,-1%
O=C(CCn1cnc2onc(-c3ccc(F)cc3)c2c1=O)Nc1ccc(F)c(Cl)c1,?
CCc1ccc(-n2c(SC(CC)C(=O)N(CC)CC)nc3n[nH]c(C)c3c2=N)cc1 (centres undefined),23%
Cc1ccc(-c2nc(S(=O)(=O)c3ccccc3)c(SCC(=O)NC3CCCCC3)o2)cc1,4%
CCOc1ccc(CNC(=O)c2cnc3sc(N(CC)CC)nn3c2=O)cc1OC,-5%
CCOC(=O)c1ccc(NC2=CC(c3ccc(F)cc3)N(c3ccc(C(=O)OCC)cc3)C2=O)cc1 (centres undefined),-2%
O=C(Nc1cc(-c2nc3cc(Cl)ccc3o2)ccc1Cl)c1cccc2ccccc12,-39%
CCOC(=O)N1CCN(Cc2nc3cc(NC(=O)c4ccc([N+](=O)[O-])cc4)ccc3n2C(C)C)CC1,?
CCOCCCn1c(SCC(=O)NCCCOC)nc2c(sc3ccccc32)c1=O,-3%
CCNC(=O)Cn1nc(C)n2c(cc3c(OC)cccc32)c1=O,-1%
CCc1ccccc1NC(=O)CSC1=Nc2ccccc2C2=NC(Cc3ccccc3)C(=O)N12 (centres undefined),0%
CCc1ccc(NC(=O)Cn2c(=O)c(CNc3ccccc3)cc3cc(OC)c(OC)cc32)cc1,5%
CCCN(C(=O)Cn1cc(S(=O)(=O)N2CCN(c3ccccc3F)CC2)c2ccccc2c1=O)c1cccc(C)c1,4%
CCC(=O)N1c2ccccc2CC1C(=O)NCCc1ccccc1C (centres undefined),0%
Cc1c(S(=O)(=O)c2cccc(Cl)c2)nnn1-c1cccc(C(F)(F)F)c1,1%
CC(C)C(=O)Nc1nnc(SCc2cc(=O)n3ccccc3n2)s1,2%
O=C(NC1CC(=O)N(c2ccc(F)cc2)C1)c1cccs1 (centres undefined),-3%
COc1ccc(NC(=O)CCNS(=O)(=O)c2cccc3nsnc23)cc1Cl,-5%
COc1ccc(CNC(=O)CCCc2nnc3n(C(C)C)c(=O)c4sccc4n23)cc1,3%
CCc1ccc(C2CC(=O)N(c3cccc(C(F)(F)F)c3)C3=C2C(=O)OC3)cc1 (centres undefined),1%
CCc1ccc2nc(N3CCC(C(=O)NCCC(C)C)CC3)sc2c1,1%

# Look-ups from the list:
# Value of COc1ccc(CNC(=O)CCCc2nnc3n(C(C)C)c(=O)c4sccc4n23)cc1 in miR-21 reporter: 3%
# Value of CCCN(C(=O)Cn1cc(S(=O)(=O)N2CCN(c3ccccc3F)CC2)c2ccccc2c1=O)c1cccc(C)c1 in miR-21 reporter: 4%

# More records follow:
SMILES,miR-21 reporter
CCOC(=O)c1ccc(NC(=O)CSc2nc(-c3cccs3)cc(C(F)(F)F)c2C#N)cc1,-1%
CCOc1ccc(NC(=O)Cn2nc(Cc3ccncc3)c3ccccc3c2=O)cc1,4%
CCN(C(=O)c1cc2c(=O)oc3ccc(C)cc3c2s1)c1ccccc1F,-2%
Cc1ccc(CNC(=O)c2cc3c(=O)n(Cc4cccnc4)ccc3nc2C)cc1,10%
COc1ccc(CCNC(=O)C(=O)NCC(c2ccco2)S(=O)(=O)c2ccc(F)cc2)cc1 (centres undefined),22%
Cc1ccc(NC(=O)N2CCN(C(=O)c3nsc4ccccc34)CC2)cc1C,-10%
Cc1ccc(CNC(=O)C2CCCN(c3nc4c(C)cc(C)cc4s3)C2)cc1 (centres undefined),0%
Cc1cccc(NC(=O)Nc2nnc(N(C)Cc3ccccc3)s2)c1,3%
CCOc1ccccc1NC(=O)c1cc(S(=O)(=O)N2CCOCC2)cn1C,6%
Cc1ccc(Sc2c(C)nn(-c3ccccc3)c2OC(=O)C(C)(C)C)cc1,-2%
Cc1ccc(N2CC(C)Cn3c2nc2c3c(=O)n(Cc3cccc(Cl)c3)c(=O)n2C)cc1 (centres undefined),5%
CN(C)S(=O)(=O)c1ccc(C(=O)NCCSc2c(-c3ccc(Br)cc3)[nH]c3ccccc23)cc1,?
CCc1ccc2nc(N(CCN(CC)CC)C(=O)c3cccs3)sc2c1,-5%
COc1cc2c(C(=O)N(C)c3cccc(C(F)(F)F)c3)cn(CC(C)C)c(=O)c2cc1OC,20%
O=C(CCCn1c(=O)c2sccc2n(Cc2cccc(Cl)c2)c1=O)NCc1ccc2c(c1)OCO2,-16%
CC(=O)c1ccc(NC(=O)Cn2ncc3c(C)n(Cc4ccc(F)cc4)c(C)c3c2=O)cc1,-10%
COc1ccc(-c2nn3c(=O)cc(CN4CCN(C(=O)c5ccc(OC)c(OC)c5)CC4)nc3s2)cc1,-1%
Oc1ccc(/C=N/N(c2ccccc2)c2ccccc2)c(O)c1O,5%
COc1cc(OC)c(NC(=O)N2CCCn3nc(C)cc32)cc1Cl,-9%
CC(=O)c1ccc(NC(=O)C2CCCN(S(=O)(=O)c3cn(C)cn3)C2)cc1 (centres undefined),-7%
CC(C)OCCCn1c(SCc2ccccc2C#N)nc2c(sc3ccccc32)c1=O,0%
CN(C)c1ccc(C2C=C(c3ccccc3)Nc3nnnn32)cc1 (centres undefined),-25%
CC(=O)Nc1ccccc1-c1nc2ccccc2n(C(C)C(=O)Nc2ccccc2C(F)(F)F)c1=O (centres undefined),-1%
Cc1ccc(S(=O)(=O)NCc2nc3cccnc3n2Cc2ccccc2Cl)c(C)c1,4%
CC(=O)c1ccc(Oc2nc(C)nc3c2oc2ccccc23)cc1,17%

# (further entries)
SMILES,miR-21 reporter
CCN(CC)CCNC(=O)C1CCCN(c2ncnc3onc(C)c23)C1 (centres undefined),-1%
CC1=C(C(=O)Nc2cccnc2)C(c2ccc(Cl)cc2)n2nc(SCc3ccccc3)nc2N1 (centres undefined),7%
COc1cccc(CNC(=O)C2=C(C)C(=O)OC23CCCCCC3)c1,-3%
COc1ccc(C2c3c(n(C)c4ccccc34)C(=O)N2CC(=O)Nc2ccc(Cl)cc2)cc1 (centres undefined),25%
Cc1ccc(C)c(CN2C(=O)c3ccccc3S(=O)(=O)c3ccc(C(=O)N4CCCCCC4)cc32)c1,23%
COc1ccc(S(=O)(=O)N2CCN(c3ccccc3OC)CC2)cc1-c1noc(C)n1,-6%
Cc1ccc(S(=O)(=O)c2[nH]c(-c3ccccc3)nc2SC(C)C(=O)O)cc1 (centres undefined),0%
Cc1ccc(NCc2ccccc2-c2nnc(-c3ccccc3Cl)o2)cc1Cl,-9%
Cc1ccc(Cn2c(CNC(=O)c3cccc(C)c3)nc3ccccc32)cc1,5%
COc1cc(C(=O)Nc2ccc(OCc3cc(=O)n4cc(C)sc4n3)cc2)cc(OC)c1OC,0%
Cc1cc(-c2ccc(S(=O)(=O)N3CCN(c4ccc(Cl)cc4)CC3)s2)on1,1%
CCCc1cc(N2CCN(c3ccc(OC)cc3)CC2)n2cnnc2n1,24%
O=C1CCc2cc(S(=O)(=O)NC(C(=O)Nc3cccc(F)c3)c3ccccc3)ccc2N1 (centres undefined),-17%
Cc1cccc(-n2c(=O)c3ccccc3n(Cc3ccccc3C#N)c2=O)c1,3%
Cc1ccc(Nc2sc(C(=O)c3ccccc3)c(N)c2C(=O)Nc2ccc(Cl)cc2)cc1,?
CCc1nnc(NC(=O)c2nc(SCc3ccccc3F)ncc2Cl)s1,0%
COc1ccc(NC(=O)[C@H]2O[C@@H]3OC(C)(C)O[C@@H]3[C@H]3OC(C)(C)O[C@H]32)c(OC)c1,-3%
COc1ccc(CNC(=O)CCc2c(C)nc3c(c(C)nn3-c3ccccc3)c2C)cc1,-3%
Cc1cc(C)cc(NC(=O)CNS(=O)(=O)c2ccc3nc(C)sc3c2)c1,-2%
Cc1ccc(S(=O)(=O)N(CC(=O)N2CCc3ccccc3C2)c2ccc(C)c(C)c2)cc1,?
Cc1nn2c(=O)cc(COC(=O)CNC(=O)c3ccc(F)cc3)nc2s1,19%
CN(Cc1ccccc1)C(=O)C1CCC(CNS(=O)(=O)c2ccc3c(c2)CCCC(=O)N3)CC1 (centres undefined),24%
CCOc1ccccc1NS(=O)(=O)c1c(C)nc2sccn2c1=O,2%
COCCCNc1nc2c(-c3cccc(Br)c3)nnn2c2ccccc12,-17%
CCc1ccccc1N1CC(c2nc3ccccc3n2Cc2cccc(C)c2)CC1=O (centres undefined),30%

# Following part.
SMILES,miR-21 reporter
CCC(Sc1nnc(-c2ccc(OC)cc2)c(-c2ccc(OC)cc2)n1)C(=O)Nc1cccc(OC)c1 (centres undefined),3%
COc1cc(Cl)c(C)cc1NC(=O)CN1c2ccccc2S(=O)(=O)c2ccccc21,3%
CC(=O)Nc1cccc(C(=O)NCc2ccc3c(c2)CCN3C(=O)c2ccc(F)cc2)c1,0%
O=C(NC1CC(=O)N(c2cccc(F)c2)C1)C(c1ccccc1)c1ccccc1 (centres undefined),5%
CCCCN1C(=O)c2[nH]nc(-c3ccccc3O)c2C1c1ccc(C(C)(C)C)cc1 (centres undefined),1%
COc1ccc(C)c2sc(NC(=O)c3ccc(S(=O)(=O)N4CCCCC4)cc3)nc12,3%
CC(=O)c1ccc(NC(=O)CCCc2nc(-c3cccc(C)c3)no2)cc1,-1%
COC(=O)c1c(NC(=O)C(C)Oc2ccc(Cl)c(C)c2)sc(C)c1C (centres undefined),-18%
Cc1cccc(N2CCN(C(=O)CCc3nnc4n(CC(C)C)c(=O)c5ccccc5n34)CC2)c1C,0%
COc1ccccc1NC(=O)c1oc2ccccc2c1NC(=O)Cc1cccs1,1%
CCOc1cc(C(=O)Nc2ccc3nc(Nc4cccc(Cl)c4)cc(C)c3c2)cc(OCC)c1OCC,12%

# Source: PubChem (National Center for Advancing Translational Sciences (NCATS))

# A portion of the library (hit frequency here may not be typical).
